LANA-H2B inh = blocks KSHV LANA binding to histone H2A/H2B. Q9QR71. cell-free LANA-H2A/H2B peptide, fluorescence polarization. inhibition, % (no concentration beside the values). 320,000 compounds, 0.6% hits. AID 2629; in the data active = inhibition mostly above about 10%, no sharp cut-off; inactive = mostly below about 6.7%;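 also: stock transfer was 7.5 nL into about 10 µL; 0% = median of vehicle wells and 100% = median of positive control wells; one replicate is shown; the record names a cut of 25% in any replicate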
ALR inh = human ALR oxidase inhibition via reduced H2O2; P55789; purified ALR, DTT oxidation, H2O2 HRP-luminol luminescence; inhibition, % (no concentration beside the values); 290,000 compounds, 3.8% hits;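 active = mean and each replicate at 75% or more; inconclusive = only one of the two met; inactive = neither met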;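 also: stock transfer was 7.5 nL into about 7.5 µL; 0% = neutral wells and 100% = wells with inactivated enzyme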
Vif TR-FRET = HIV-1 Vif–A3G interaction blockers – biochemical, TR-FRET, GST-Vif 1-94, biotin-A3G peptide, dose response retest, primary screen (AID 1117319); 260,000 compounds, 0.57% hits; one-dose inhibition, %; IC50 in µM for titrated hits; TR-FRET GST-Vif / biotin-A3G peptide binding; higher % means a stronger effect; test concentration not given here; strong numbers were not always called active;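 active = above the screen mean plus three standard deviations and confirmed in dose response; inconclusive = results disagree or hit not tested in dose response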;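 also: Vif residues 1-94 fused to GST binding biotinylated APOBEC3G peptide 110-148; 0% = full assay without inhibitor and 100% = GST in place of GST-Vif; retest series ran down from 100 µM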
B2AR ag = human beta-2 adrenergic receptor agonism by FAP; P07550; Am2.2-beta2AR cells, FAP receptor internalization, flow cytometry; reference of the scale not given here; response, % (test concentration not listed); 340,000 compounds, 0.43% hits;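 active = response above a set limit, near 3 SD of response in nonfluorescent compounds, cut at about 42% in these data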;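 also: stock transfer was 100 nL into about 11 µL; a reference agonist was the positive control; negative values mostly stem from fluorescent compounds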
Target sequence (P07550 whole entry, looked up): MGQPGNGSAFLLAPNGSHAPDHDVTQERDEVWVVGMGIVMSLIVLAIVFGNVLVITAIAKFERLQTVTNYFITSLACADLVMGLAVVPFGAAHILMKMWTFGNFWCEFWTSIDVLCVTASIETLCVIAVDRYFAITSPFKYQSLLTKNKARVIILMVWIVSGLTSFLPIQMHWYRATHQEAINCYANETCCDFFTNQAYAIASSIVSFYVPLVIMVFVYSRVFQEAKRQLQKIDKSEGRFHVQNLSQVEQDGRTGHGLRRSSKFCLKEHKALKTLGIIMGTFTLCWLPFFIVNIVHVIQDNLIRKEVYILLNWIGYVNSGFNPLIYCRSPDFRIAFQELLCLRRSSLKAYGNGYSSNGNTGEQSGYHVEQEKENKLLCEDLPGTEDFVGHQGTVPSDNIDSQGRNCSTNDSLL
RanGTP-Impb inh = disruptors of Ran-importin-beta complex formation – biochemical, FRET, CFP-Ran, YFP-importin-beta, homogeneous, primary screen | cell-free CFP-Ran/YFP-importin-beta FRET ratio | inhibition, % (test concentration not listed) | 300,000 compounds, 1.1% hits;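 active = most replicates above 15%; inconclusive = exactly half above 15%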;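 also: 0% = DMSO wells and 100% = Ran loaded with GDP instead of GTP; wells of about 40 µL received 100 nL stock; the first replicate is given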
Calb FLC = affects C. albicans growth with fluconazole; growth inhibition, % (test concentration not listed); C. albicans CaCi-2 (fluconazole-resistant clinical isolate) + fluconazole, Alamar Blue growth, 48 h; AID 1979; 300,000 compounds, 0.57% hits;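 active = most replicates above 75%; inconclusive = exactly half above 75%; inactive = most below 75%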;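 also: all wells also contain fluconazole at 8 µg/ml as a sub-toxic cotreatment; 0% = median of DMSO wells and 100% = median of geldanamycin control wells; wells of about 8 µL received 7.5 nL stock; the first replicate is given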
HNF4A DNA FP = change in binding of human HNF4 alpha to DNA; P41235; HNF4a-FITC DNA binding, fluorescence polarization, 1 h; activity change, % at 10 µM; 360,000 compounds, 0.3% hits; AID 1224865; in the data active = activity change above about 30%, passing the limit was not always enough;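 also: controls were the assay level and a saturating level of protein; the project sought stronger binding though the title names inhibitors; some compounds called inactive have numbers as strong as hits; positive values seem to mean higher polarization but the record does not say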
Target sequence (P41235 whole entry, looked up): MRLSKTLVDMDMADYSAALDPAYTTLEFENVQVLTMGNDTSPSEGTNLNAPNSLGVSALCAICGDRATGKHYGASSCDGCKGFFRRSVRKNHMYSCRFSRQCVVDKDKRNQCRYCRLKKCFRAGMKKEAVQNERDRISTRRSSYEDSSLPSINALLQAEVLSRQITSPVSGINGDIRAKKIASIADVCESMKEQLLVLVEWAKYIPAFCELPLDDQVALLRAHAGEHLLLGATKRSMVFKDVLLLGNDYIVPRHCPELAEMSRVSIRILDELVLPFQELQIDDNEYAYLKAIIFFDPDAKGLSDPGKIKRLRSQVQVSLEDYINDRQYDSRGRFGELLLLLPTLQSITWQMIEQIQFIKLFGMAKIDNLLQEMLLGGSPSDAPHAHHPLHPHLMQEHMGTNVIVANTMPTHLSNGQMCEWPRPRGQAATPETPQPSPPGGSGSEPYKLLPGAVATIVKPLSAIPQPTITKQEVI
* marks the source's active call; other numbers are inactive results; ? = inconclusive; nt = not tested or not shown.

SMILES	LANA-H2B inh	ALR inh	Vif TR-FRET	B2AR ag	RanGTP-Impb inh	Calb FLC	HNF4A DNA FP
Cc1ccc([N+](=O)[O-])cc1N	-4.4	1	-4%	2	1.0	-8	4.9
Cc1ccccc1-n1ncc2c1CC(C)(C)CC2NC(=O)CCC1=NNC(=O)CC1 (stereo not given)	0.9	-18	-1%	-4	1.0	2	-1.7
Cc1cccc(C(=O)Nc2ccc(N3CCN(S(C)(=O)=O)CC3)cc2)c1	-3.9	-7	1%	6	-4.2	19	-6.2
Cc1ccc(NC(=O)C(=O)NNC(=O)c2cccs2)cc1	0.5	16	-9%	6	-4.5	5	1.8
CC(=O)NN1C(=O)c2ccccc2NC1c1ccccc1O (stereo not given)	-0.1	nt	3%	-4	-3.5	-1	2.1
Cc1ccc(OCCCCn2cnc3ccccc32)c(C)c1	-2.7	-7	11%	6	nt	18	0.2
CN(C)S(=O)(=O)c1cccc(CSCc2cccc(S(=O)(=O)N(C)C)c2)c1	-1.6	-6	-2%	-8	0.7	-8	2.5
O=C(O)C1C2C=CC(O2)C1C(=O)NC1CCCc2ccccc21 (stereo not given)	4.2	-3	3%	4	1.5	-2	-0.1
CS(=O)(=O)N1CC(C(=O)O)Oc2ccc(CC(=O)O)cc21 (stereo not given)	2.2	-9	nt	-1	-7.2	-16	-8.0
Cc1cccc(N2CCN(C(=O)CCCCCn3c(=S)[nH]c4ccc(N5CCOCC5)cc4c3=O)CC2)c1C	-0.8	-8	-3%	4	3.9	19	4.0
CCOc1c(Br)cc(C(N)=O)cc1OCc1ccccc1	0.5	?	11%	3	-2.6	30	-3.9
N#CCC(=O)N/N=C\c1cc(Br)ccc1OC/C=C/c1ccccc1	2.8	-17	nt	6	nt	-9	-0.9
C/C=C\C=C/C(=O)Nc1cccc(C2=NOC3(C2)C[C@@H](C(N)=O)N(C(=O)[C@H]2CCC(=O)N2)C3)c1 (stereo not given in full)	3.3	6	-2%	0	-3.0	-9	-1.2
Nc1nc(-c2ccccc2)cn1N	-4.4	nt	15%	-4	4.1	3	-1.9
CCCc1nnc(NC(=O)CCC(=O)N2CCN(CCOc3ccc(C)cc3)CC2)s1	2.0	-2	?	-3	-3.3	0	-1.2
CCc1ccccc1NC(=O)Cn1ccn(-c2ccc(OC)cc2)c(=O)c1=O	-5.4	39	nt	1	1.6	-18	-0.6
CCOC(=O)N1CCN(CC(=O)Nc2c(C(=O)OC)[nH]c3cccc(Cl)c23)CC1	1.5	-5	9%	-9	5.8	0	2.9
Cc1ccc(NC(=O)c2cc([N+](=O)[O-])ccc2N2CCOCC2)cc1S(=O)(=O)N(C)C	0.2	nt	2%	9	-3.9	0	-0.3
O=C(CSc1nnc(-c2ccncc2)o1)N1CCc2ccccc2C1	-3.9	7	1%	0	-1.8	23	-1.8
N=C1C2=C3Sc4ccccc4N3CCCC2=NN1c1cccc(S(=O)(=O)O)c1	-2.3	nt	nt	-9	-3.0	8	-0.5
Cc1cc(C)cc(N(CC(=O)NC2CCCC2)C(=O)CCC(=O)Nc2cc(C)ccn2)c1	2.4	3	3%	-2	22	0	0.9
Cc1ccc(Nc2nnc(SC(C)C(=O)NC3CC3)s2)cc1 (stereo not given)	-2.1	8	-8%	1	nt	nt	-4.8
Oc1ccc(N2CCN(c3nnnn3-c3ccccc3)CC2)cc1	-5.0	99*	11%	2	-2.9	-18	0.9
NC(=O)CC(NC(=O)Cc1ccc(Br)cc1)c1ccc(N2CCc3ccccc3C2)c([N+](=O)[O-])c1 (stereo not given)	-2.2	0	nt	-8	1.5	18	1.3
CCc1ccccc1NS(=O)(=O)c1ccc2[nH]cc(C(=O)NCc3ccco3)c(=O)c2c1	7.3	15	14%	3	-0.9	-1	1.1
(list continues)
SMILES	LANA-H2B inh	ALR inh	Vif TR-FRET	B2AR ag	RanGTP-Impb inh	Calb FLC	HNF4A DNA FP
COc1ccc(N(Cc2cc3ccc(C)cc3[nH]c2=O)S(=O)(=O)c2ccccc2)cc1	-2.6	-3	nt	-5	0.2	-4	4.5
COC(=O)C(C)n1cnc2c(nnn2-c2ccc(C)cc2)c1=O (stereo not given)	-2.3	-2	nt	-4	4.3	-2	5.2
CC1CCCN(Cc2ccc(OCc3ccccc3)cc2)C1 (stereo not given)	0.4	8	nt	5	6.6	-15	0.9
O=C(Nc1ccc(F)cc1)C(=O)C1C(=O)Nc2ccccc21 (stereo not given)	-1.6	8	-6%	-2	-1.8	11	2.4
Cc1nc(Cc2nnc(SCc3nc(N)nc(Nc4ccccc4C)n3)o2)cs1	-5.9	-4	9%	-6	-2.3	1	5.0
COc1ccc(NC(=S)Nc2cccc(C(C)=O)c2)cc1OC	-2.5	-10	nt	-2	0.0	27	2.6
CCOC(=O)N1CCN(C(=O)CCCn2c(=S)[nH]c3ccsc3c2=O)CC1	2.4	95*	-6%	3	1.3	-1	-14
Clc1cccc(OCCN2CCOCC2)c1	-4.7	-3	-3%	3	?	3	-1.7
CC(C)NC(=O)N(C)C[C@@H]1Oc2c(NC(=O)Nc3ccccc3)cccc2C(=O)N([C@H](C)CO)C[C@H]1C	nt	3	-11%	0	nt	nt	0.9
CCOc1ccc(S(=O)(=O)N2CCOCC2)cc1NC(=O)CSCc1ccc(C)cc1	5.2	-1	16%	0	nt	nt	-0.3
CCN(CC)CC(=O)NCc1cc(-c2ccc(OC)cc2)no1	0.8	nt	5%	2	1.7	13	-0.6
COc1ccc(NC(=O)CN2C(=O)C(c3ccccc3)=NC23CCCCCC3)cc1	-1.8	-4	nt	-2	?	11	-3.3
O=C1CSC(c2cccnc2)N1CCc1ccccn1 (stereo not given)	4.3	-6	-5%	0	3.6	2	2.1
O=C(NCC1(N2CCCCC2)CCCCC1)C1CC(=O)N(c2ccc3c(c2)OCCO3)C1 (stereo not given)	3.5	-18	14%	-1	7.2	-8	0.0
COC(=O)c1cc(C(=O)OC)cc(N2C(=O)CC(NNC(=O)c3ccc(C)cc3)C2=O)c1 (stereo not given)	5.0	5	6%	-3	-3.1	-16	-1.1
O=C(NCCNC(=O)Oc1cccc2ccccc12)Oc1cccc2ccccc12	nt	nt	-1%	7	nt	nt	1.1
COc1ccc(-c2nc(CS(=O)CC(=O)NCc3cccnc3)c(C)o2)cc1 (stereo not given)	3.8	99*	2%	-16	-4.0	2	0.8
CC(C)(C)C(=O)N1CCn2c1nc1ccccc12	4.9	11	nt	-11	-0.1	6	5.6
CC(C)C1=NN2C(=N)CC(=O)N=C2S1	1.4	-25	0%	-15	7.9	-2	-0.2
CC(NC(=O)CCc1nnc(C2(c3ccc(Cl)cc3)CCC2)o1)C1CC1 (stereo not given)	4.6	-6	-10%	-4	1.0	-18	-5.4
COc1ccccc1Oc1nnnn1-c1ccc(C(N)=O)cc1	-4.8	-6	-2%	7	1.5	-5	-3.3
Cn1ccnc1C1CCCCN1Cc1nc(Cc2ccccc2F)no1 (stereo not given)	-0.6	nt	9%	1	1.0	-10	0.6
COc1ccc2c(c1)c(C(C)=O)c(C)n2-c1ccc(C(C)=O)cc1	nt	nt	nt	-1	2.2	10	-0.8
CCCCCNCc1ccc(Cl)cc1	2.0	1	-10%	2	0.7	-2	0.0
Cc1cc(C)cc(Nc2nc(-c3ccc(S(=O)(=O)N4CCCC4)cc3)cs2)c1	-6.9	-1	4%	2	-1.3	5	2.7

Single records, as listed above. Values in the order: LANA-H2B inh, ALR inh, Vif TR-FRET, B2AR ag, RanGTP-Impb inh, Calb FLC, HNF4A DNA FP
Listed for `COc1ccc2c(c1)c(C(C)=O)c(C)n2-c1ccc(C(C)=O)cc1` = nt, nt, nt, -1, 2.2, 10, -0.8
Listed for `CC(NC(=O)CCc1nnc(C2(c3ccc(Cl)cc3)CCC2)o1)C1CC1` (stereo not given) = 4.6, -6, -10%, -4, 1.0, -18, -5.4
Listed for `CCOC(=O)N1CCN(C(=O)CCCn2c(=S)[nH]c3ccsc3c2=O)CC1` = 2.4, 95*, -6%, 3, 1.3, -1, -14
Listed for `CC(C)(C)C(=O)N1CCn2c1nc1ccccc12` = 4.9, 11, nt, -11, -0.1, 6, 5.6
Listed for `CC(C)C1=NN2C(=N)CC(=O)N=C2S1` = 1.4, -25, 0%, -15, 7.9, -2, -0.2

The list goes on:
SMILES	LANA-H2B inh	ALR inh	Vif TR-FRET	B2AR ag	RanGTP-Impb inh	Calb FLC	HNF4A DNA FP
O=C(Nc1cccnc1)c1cccnc1	-11	-3	18%	-4	7.9	26	5.7
Cc1ccccc1NS(=O)(=O)c1ccc(F)cc1	6.3	0	1%	-2	0.7	-17	-2.1
Cc1ccc(NC(=S)N(CCCN(C)C)Cc2cc3cc4c(cc3[nH]c2=O)OCO4)cc1	2.8	6	1%	0	-1.2	-16	0.9
Cc1cc(C)nc(SCC(=O)N/N=C/C=C/c2ccccc2)n1	-6.3	-8	nt	-5	4.1	-2	4.8
Cc1cccc(NC(=O)CN(C)C(=O)C2CCCC2)c1C	-8.2	2	-2%	-4	nt	nt	-2.5
COCCn1nnnc1C(C(C)C)N1CCCC(C)C1 (stereo not given)	0.9	3	22%	1	-4.6	1	-0.1
CC1=C(C(=O)Nc2cccnc2)C(c2ccc3c(c2)OCO3)C2=C(CCCC2=O)N1 (stereo not given)	-0.7	nt	15%	-8	?	-3	3.9
Cc1ccc(S(=O)(=O)N(Cc2c(F)cccc2Cl)C(=O)N2CCN(C)CC2)cc1	0.0	-7	-1%	1	1.6	-6	-0.8
N#C/C(=C\c1ccco1)C(=O)NCC1CCCO1 (stereo not given)	-2.7	0	16%	-4	-0.9	-1	1.1

Four of the compounds above, as labelled records.
CCCCCNCc1ccc(Cl)cc1
  LANA-H2B inh: 2.0
  ALR inh: 1
  Vif TR-FRET: -10%
  B2AR ag: 2
  RanGTP-Impb inh: 0.7
  Calb FLC: -2
  HNF4A DNA FP: 0.0

Cc1cc(C)cc(Nc2nc(-c3ccc(S(=O)(=O)N4CCCC4)cc3)cs2)c1
  LANA-H2B inh: -6.9
  ALR inh: -1
  Vif TR-FRET: 4%
  B2AR ag: 2
  RanGTP-Impb inh: -1.3
  Calb FLC: 5
  HNF4A DNA FP: 2.7

O=C(Nc1cccnc1)c1cccnc1
  LANA-H2B inh: -11
  ALR inh: -3
  Vif TR-FRET: 18%
  B2AR ag: -4
  RanGTP-Impb inh: 7.9
  Calb FLC: 26
  HNF4A DNA FP: 5.7

Cc1ccccc1NS(=O)(=O)c1ccc(F)cc1
  LANA-H2B inh: 6.3
  ALR inh: 0
  Vif TR-FRET: 1%
  B2AR ag: -2
  RanGTP-Impb inh: 0.7
  Calb FLC: -17
  HNF4A DNA FP: -2.1

Hits appear at their usual frequency; about 6.3% have a hit in one of these screens.
